Assay outcomes deposited in PubChem BioAssay by Johns Hopkins Ion Channel Center.
KCNQ2 block – KCNQ2 potassium channel inhibitors, primary screen, cell-based, CHO-K1, FluxOR thallium flux, B-score (AID 2156). O88943. 20 min; hits give low values; only compounds with negative scores are shown here; some inactives read as strong as hits. B-score at 10 µM. actives 1.1% (n = 310,000);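 active = fluorescence ratio B-score at most minus 3 library SDs, with starting brightness B-score within 2 library SDs, cut at about -5.5 in these data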
Target sequence (O88943 whole entry, looked up): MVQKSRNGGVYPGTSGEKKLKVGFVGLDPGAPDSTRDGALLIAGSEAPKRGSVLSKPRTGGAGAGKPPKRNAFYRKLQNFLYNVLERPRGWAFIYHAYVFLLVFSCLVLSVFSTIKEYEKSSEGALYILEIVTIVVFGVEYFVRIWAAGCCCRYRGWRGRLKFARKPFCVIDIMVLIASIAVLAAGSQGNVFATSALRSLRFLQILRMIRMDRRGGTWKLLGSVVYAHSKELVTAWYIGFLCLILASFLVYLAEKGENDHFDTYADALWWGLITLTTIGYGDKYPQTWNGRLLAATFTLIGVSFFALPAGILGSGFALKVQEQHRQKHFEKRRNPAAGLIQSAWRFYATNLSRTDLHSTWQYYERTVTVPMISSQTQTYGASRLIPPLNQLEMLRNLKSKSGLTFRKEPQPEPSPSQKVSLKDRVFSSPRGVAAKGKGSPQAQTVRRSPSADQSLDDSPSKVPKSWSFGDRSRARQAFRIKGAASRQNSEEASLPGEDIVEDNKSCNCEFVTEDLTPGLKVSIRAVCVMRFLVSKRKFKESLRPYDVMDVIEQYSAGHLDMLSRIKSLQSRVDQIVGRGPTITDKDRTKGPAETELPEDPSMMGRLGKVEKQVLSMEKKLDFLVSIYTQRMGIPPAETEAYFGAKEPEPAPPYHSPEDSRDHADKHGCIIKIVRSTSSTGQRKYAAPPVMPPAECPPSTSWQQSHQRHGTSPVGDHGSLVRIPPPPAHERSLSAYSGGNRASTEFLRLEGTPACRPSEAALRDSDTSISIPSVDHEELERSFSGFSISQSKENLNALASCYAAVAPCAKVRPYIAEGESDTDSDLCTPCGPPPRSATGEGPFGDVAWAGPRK
KCNQ2 block baseline – recorded beside KCNQ2 block, whose call it bears; B-score; measured here: initial fluorescence intensity artifact check;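 brightness before thallium and not channel activity; 0 = typical well and far values either way flag optical interference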
* = called active by the depositor; i = inactive. These rows are one share of the data; count on the stated rates, not on these rows.

SMILES | KCNQ2 block | KCNQ2 block baseline
O=C1c2cccc3c([N+](=O)[O-])ccc(c23)C(=O)N1c1nccs1 | i | 0.01
Cc1ccc([N+](=O)[O-])cc1S(=O)(=O)N(C(=O)c1ccncc1)c1ccc2oc3c(c2c1)CCCC3 | i | -0.53
C/C=C/c1ccc(OCC(O)CN2CCCCCCC2)c(OC)c1 (configuration not stated) | i | 2
CCN1CCc2nc3ccccc3c(C(=O)Nc3ccc(C#N)cc3)c2C1 | i | 0.57
Cc1[nH]c(-c2ccc(F)cc2)cc1C(=O)N1CCN(c2ccccc2)CC1 | i | -1.7
O=C(CN1CCN(C(=O)c2ccccc2F)CC1)Nc1ccc(Br)cc1 | i | 0.94
O=C1CCC(C(=O)N2CCSCC2)CN1CCc1ccccc1 (configuration not stated) | i | 0.03
Cc1nnc(NC(=O)CSc2nnc(CCc3nc4ccccc4[nH]3)n2C)s1 | i | 3.1
CC1(C)C2CCC1(C)C(Nc1ccccc1)C2 (configuration not stated) | i | 0.85
CCOc1ccc(C(C)=O)cc1COC(=O)c1cc([N+](=O)[O-])ccc1N1CCOCC1 | i | 0.1
CCOc1ccc(C(=O)NCC2CCCO2)cc1 (configuration not stated) | i | 0.5
O=C(CSc1nc(O)c(C2CCCCC2)c(=O)[nH]1)NCC1CCCO1 (configuration not stated) | i | -0.5
COc1cccc(/C=N/NC(=O)CNC(=O)c2ccc(S(=O)(=O)N3CCCC3)cc2)c1OC | i | -1.6
CCn1c(=NC(=O)CS(=O)(=O)c2ccc(C)cc2)sc2cccc(OC)c21 | i | -0.01
O=c1[nH]c(CN2CCCC2)nc2sc3c(c12)CCC3 | i | 0.19
Cc1nn(-c2ccccc2)c2sc(C(=O)N(CC(=O)NC3CCCC3)Cc3ccco3)cc12 | i | -0.16
CCOC(=O)NNC(=O)NCCCCCCNC(=O)NNC(=O)OCC | i | 1.2
O=C(CCSc1nc(-c2ccc3c(c2)OCO3)cc(C(F)(F)F)n1)NCc1ccco1 | i | 0.05
C=CC[n+]1c(-c2ccc(OCC)cc2)csc1NNC(=O)Nc1ccccc1 | i | 2.4
CC1CCN(C(=O)COC(=O)C2CCN(S(=O)(=O)c3ccc4c(c3)OCCO4)CC2)CC1 | i | 2.2
O=C(Cc1cccs1)N1CCN(c2cccc(Cl)c2)CC1 | i | 0.15
COc1cccc(OC)c1C(=O)Nn1c(-c2cccc(C)c2)nc2ccccc2c1=O | i | 0.27
CCc1ccc(NC(=S)N(CCC(C)C)C2CCN(C(C)=O)CC2)cc1 | i | 0.67
OCCNC(=S)Nc1cccc(Cl)c1Cl | i | 1.6
COc1cc(/C=C2\SC(=S)N(CCC(=O)N3CCCCC3)C2=O)cc(OC)c1OC | i | 0.44
(list continues)
SMILES | KCNQ2 block | KCNQ2 block baseline
N#Cc1ccc(C(=O)NC2CCCCCCC2)cc1 | i | 0.33
COc1cc(/C=N/Nc2nc(Nc3ccccc3)nc(N3CCOCC3)n2)ccc1OC(=O)c1ccco1 | i | -1.7
Cc1c(OCC(=O)N2CCC(C(=O)O)CC2)ccc2c3c(c(=O)oc12)CCC3 | i | 0.06
O=C(N/N=C/c1cccs1)c1cccc(S(=O)(=O)Nc2ccc(Cl)cc2)c1 | i | -0.43
CCc1ccc(N2CC(C(=O)Nc3nccs3)CC2=O)cc1 (configuration not stated) | i | 5.5
O=C(OCc1nnc(-c2ccccc2)o1)c1cc([N+](=O)[O-])ccc1Cl | i | 0.43
CC#CC(=O)N1CCCC(Cc2cccc(OC)c2)(C(=O)OCC)C1 (configuration not stated) | i | -0.02
Cn1c(SCC(=O)c2ccc3c(c2)OCO3)nnc1C1COc2ccccc2O1 (configuration not stated) | i | 0.52
Cn1cnnc1Sc1cc(N2CCN(S(=O)(=O)c3ccccc3)CC2)ccc1[N+](=O)[O-] | i | -2.4
O=C(Cc1n[nH]c(=O)[nH]c1=O)N/N=C/c1c(O)ccc2ccccc12 | i | 1.5
Cc1nn2cc(-c3ncc(C(F)(F)F)cc3Cl)cnc2c1Br | i | -1.4
O=C(NCCc1ccccn1)c1cc(-c2ccc(Cl)cc2)nc2ccccc12 | i | -2
COc1cc(OC)c(NC(=O)CS(=O)(=O)Cc2nc(-c3ccc(C)cc3)oc2C)cc1Cl | i | 2
Cc1ccc(CNC(=O)C2CCN(c3nnc(N4CCCC4=O)s3)CC2)cc1 | i | 2.5
COc1cccc(NC(=O)CSc2nnc(Cc3ccc(OC)c(OC)c3)o2)c1 | i | -2.2
CCN(C(=O)COC(=O)c1c(C)nn(-c2ccccc2)c1C)C1CCS(=O)(=O)C1 (configuration not stated) | i | 1.6
CCCOc1cc(C)c(S(=O)(=O)N2CCOCC2)cc1C | i | 1.9
CC(C)NC(=O)c1nc2c(nnn2Cc2cccc(Cl)c2)c(=O)[nH]1 | i | 2
COc1ccc(OCc2cc(C(=O)N3CCC(OC)CC3)no2)c2ccccc12 | i | 0.19
COc1ccc(CCNC(=O)CCc2cn(C)c3ccccc23)c(OC)c1 | i | -0.91
COCCn1c(SCC(=O)NC(C)c2ccccc2)nc2ccccc21 (configuration not stated) | i | -0.67
CCOC(=O)C1CCN(C(=O)CN(c2ccc3c(c2)OCCO3)S(=O)(=O)c2ccccc2)CC1 | i | -2
CCOc1ccc(/C(O)=C2/C(=O)C(=O)N(CCCn3ccnc3)C2c2cccs2)cc1Cl (configuration not stated) | i | -0.79
Cc1ccc(CNS(=O)(=O)c2ccc(C)s2)cc1 | i | 0.13
Cn1c(=O)c2c(-c3ccccc3F)c3c(nc2n(C)c1=O)-c1ccccc1C3O (configuration not stated) | i | 0.16

The last 2 compounds of the section before open the next one.
SMILES | KCNQ2 block | KCNQ2 block baseline
Cc1ccc(CNS(=O)(=O)c2ccc(C)s2)cc1 | i | 0.13
Cn1c(=O)c2c(-c3ccccc3F)c3c(nc2n(C)c1=O)-c1ccccc1C3O (configuration not stated) | i | 0.16
Cc1cc(C)n2nc(CNS(=O)(=O)c3cccc([N+](=O)[O-])c3)nc2n1 | i | -2.4
Cc1ccc(NS(=O)(=O)N(C)C)cc1 | i | 0.33
Clc1ccc(OCCCNCc2ccccc2)c(Br)c1 | i | -0.08
COc1ccc(OC)c(NC(=O)c2c(NC(=O)CNCc3ccco3)sc3c2CCC3)c1 | i | 0.93
C=CCn1c(SCn2nnc3ccccc3c2=O)nnc1-c1ccc(Cl)cc1 | i | 0.23
CCC(C)OC(=O)c1[nH]c2c(c1C)C(=O)CC(c1ccc(N(C)C)cc1)C2 (configuration not stated) | i | 2.3
CCc1ccc(CN(C)C(=O)c2cc(S(=O)(=O)N3CCN(CC)CC3)ccc2Cl)cc1 | i | -1.5
Cc1ccc(CNC(=O)CSc2c3c(nc4ccc(Cl)cc24)CCCC3)o1 | i | 0.2
COc1ccc(-c2cc(C(F)(F)F)c(C#N)c(SCC(=O)Nc3ccc(C)cc3)n2)cc1 | i | -1.3
CC(C)(C)NC(=O)Nc1cccc(Cl)c1Cl | i | 1.2
O=C(Nc1ccc(F)cc1)Nc1nnc(-c2ccco2)s1 | i | 0.3
CC1CCc2nc(NC(=O)C3COc4ccccc4O3)sc2C1 (configuration not stated) | i | 4.1
NS(=O)(=O)c1ccc(NC(=O)/C=C/c2ccccc2[N+](=O)[O-])cc1 | i | -1.5
c1ccc(Nc2cccc(Nc3ccccc3)n2)cc1 | i | -2.1
CC(C(=O)N1CCCc2ccccc21)N1CCN(c2ccccn2)CC1 (configuration not stated) | i | 1.6
COc1ccc(C(=O)NCCCN2CCOCC2)cc1S(=O)(=O)N1CCCc2ccccc21 | i | -1.2
CCN1CCCC1CNCC(O)COc1ccc(C(C)(C)C)cc1C (configuration not stated) | i | 3.6
Cn1c(C(C#N)/C(=N\S(=O)(=O)c2cccs2)c2ccccc2)nc2ccccc21 (configuration not stated) | i | -0.21
COc1ccc(/C=C/C(=O)c2ccc(C(=O)/C=C/c3ccc(OC)c(OC)c3)cc2)cc1OC | i | -0.03
CCC(c1nnnn1C1CCCCC1)N1CCN(C2CCCC2)CC1 (configuration not stated) | i | -0.87
Cc1cccc(C)c1NC(=O)CNC(=O)Cn1nc(C)c(C)c(C#N)c1=O | i | -0.27
Clc1ccc(-c2c[n+](Cc3cccc(Cl)c3)c3n2CCC3)cc1 | i | -2.2
Cc1ccccc1-c1nc2c(s1)CCc1onc(-c3ccc(Cl)cc3)c1-2 | i | -0.8
CCC(C)(C)NC(=O)C(c1ccccn1)N(C(=O)c1csnn1)c1ccc(C)c(C)c1 (configuration not stated) | i | -0.33
C[C@H](CCC(=O)O)[C@H]1CC[C@H]2[C@@H]3[C@H](O)C[C@@H]4C[C@H](O)CC[C@]4(C)[C@H]3C[C@H](O)[C@]12C | i | 1.6
More entries
SMILES | KCNQ2 block | KCNQ2 block baseline
COCCNS(=O)(=O)c1cccc2cccnc12 | i | 1
CCCCCCNCC1OCc2ccccc2CO1 | i | -3
Cc1ccc(S(=O)(=O)NC(=O)Nc2nnc(C)s2)cc1 | i | 4.4
CCCCC(=NCCc1c(C)[nH]c2ccc(OC)cc12)C1=C(O)CC(c2ccccc2)CC1=O (configuration not stated) | i | 1.5
CC(C)NS(=O)(=O)c1ccc(OCC(=O)Nc2ccc3c(c2)OCO3)c(Cl)c1 | i | 0.31
CCN(CC)S(=O)(=O)c1ccc(C)c(NC(=S)NC2CCCCC2)c1 | i | -0.26
Cc1ccc2nc(NCc3ccc(F)cc3)c3nncn3c2c1 | i | -1.1
Cc1cccc(-n2cnc(C(=O)NNC(=S)Nc3ccccc3)c2)n1 | i | -0.12
Nc1nc(COc2ccc3ccccc3c2)cs1 | i | -0.5
COC(=O)CN1C(=S)N(C)C(=O)/C1=C/c1cccs1 | i | -1.5
COc1ccc(CCNC(=S)NC(=O)c2ccccc2)cc1C | i | -0.76
Cc1ccc(Cl)cc1NC(=O)COC(=O)CC(C)(C)C | i | -1.2
O=C(Cn1cc([N+](=O)[O-])cn1)N1CCCc2ccccc21 | i | -0.09
C#CCNC(=O)/C=C/c1ccc(C)cc1 | i | 4.3
C=C[C@@](C)(O)CC[C@@H]1[C@@]2(C)CCCC(C)(C)[C@@H]2CC[C@@]1(C)O | i | -0.5
CC1=CS/C(=C(/C#N)C(=O)NCc2ccco2)N1c1ccccc1 | i | -1.5
Cc1cccc[n+]1C1C(c2ccccc2)C(C#N)=C(C(=C=[N-])C#N)NC1(O)C1CC1 (configuration not stated) | i | 1.2
COc1ccc(CNC(=O)CCC(=O)Nc2ccc(Cl)cc2)cc1 | i | -0.1
COc1ccc(OC)c(C(=O)NC(CC(N)=O)c2ccc(NCCN3CCCC3)c([N+](=O)[O-])c2)c1 (configuration not stated) | i | -0.32
CCN(CC)CCNC(=O)C(=O)Nc1cc2c3c(c1)CCN3C(=O)CC2 | i | 1.3
CCOC(=O)c1cnc(N)nc1C(F)(F)F | i | 2.4
Cc1cccc(NC(=O)CSc2nnc(-c3ccncc3)n2C)c1 | i | -0.58
CCCCC1=NN(C(=O)c2ccco2)C(O)(C(F)(F)F)C1 (configuration not stated) | i | 0.16
N#Cc1c(NC(=O)c2ccc(Br)o2)n(-c2ccccc2)c2nc3ccccc3nc12 | i | -0.62
Cc1noc(C)c1COc1cccc(C(=O)Nc2ccc(OCc3ccccc3)cc2)c1 | i | -1.4

Some of these compounds in order of the KCNQ2 block baseline value, largest number first.
SMILES | KCNQ2 block | KCNQ2 block baseline
Cc1ccc(S(=O)(=O)NC(=O)Nc2nnc(C)s2)cc1 | i | 4.4
CCN(CC)CCNC(=O)C(=O)Nc1cc2c3c(c1)CCN3C(=O)CC2 | i | 1.3
CC(C)NS(=O)(=O)c1ccc(OCC(=O)Nc2ccc3c(c2)OCO3)c(Cl)c1 | i | 0.31
O=C(Cn1cc([N+](=O)[O-])cn1)N1CCCc2ccccc21 | i | -0.09
Cc1cccc(-n2cnc(C(=O)NNC(=S)Nc3ccccc3)c2)n1 | i | -0.12
COC(=O)CN1C(=S)N(C)C(=O)/C1=C/c1cccs1 | i | -1.5

Compound profiles (already shown).
Entry for `COc1ccc(OC)c(NC(=O)c2c(NC(=O)CNCc3ccco3)sc3c2CCC3)c1` : KCNQ2 block: i; KCNQ2 block baseline: 0.93
Entry for `Cc1cccc(-n2cnc(C(=O)NNC(=S)Nc3ccccc3)c2)n1` : KCNQ2 block: i; KCNQ2 block baseline: -0.12
Entry for `C=CCn1c(SCn2nnc3ccccc3c2=O)nnc1-c1ccc(Cl)cc1` : KCNQ2 block: i; KCNQ2 block baseline: 0.23

Later entries
SMILES | KCNQ2 block | KCNQ2 block baseline
O=C(Cc1cccs1)Nc1ccc(-c2nnc(-c3ccco3)o2)cc1 | i | -1.3
O=C(/C=C/c1ccc2c(c1)OCO2)NCCSCc1ccc(Cl)cc1Cl | -7.8* | 0.32*
CCc1ccc(NC(=O)C2CCN(S(=O)(=O)c3ccc4c(c3)CC(C)N4C(C)=O)CC2)cc1 (configuration not stated) | i | 0.68
COc1ccc(C)cc1NS(=O)(=O)c1ccc2c(c1)N(C(C)=O)CCO2 | i | -0.66
COc1ccccc1NC(=O)CCSc1nnnn1C | i | 0.61
O=C(CCn1c(=O)oc2ccccc21)N1CCN(c2ccccc2Cl)CC1 | i | -0.46
Cc1cc(NC(=O)CC23CC4CC(C2)CC(CC(=O)Nc2cc(C)on2)(C4)C3)no1 | i | -0.03
CC1(C)Cc2c(cnn2-c2ccccc2)C(NC(=O)CCCN2CCCC2=O)C1 (configuration not stated) | i | -0.04
Cc1ccc(NCCNc2ccc(C)cc2)cc1 | i | -0.07
CCOC(=O)c1ccc(S(=O)(=O)N2CCN(CC(O)COc3ccc(C#N)cc3)CC2)cc1 (configuration not stated) | i | -0.99
CCN(CC(=O)Nc1ccc(OC)cc1)C(=O)c1ccc(NS(=O)(=O)c2ccc(C(C)=O)cc2)cc1 | i | 0.44
CCOc1ccc(S(=O)(=O)N(CC(=O)O)c2ccccc2)cc1 | i | 0.32
CCCC(=O)c1cc(F)c(N2CCN(C(=O)OCC)CC2)cc1C | i | 2.8
